Screening results (PubChem)
VDR inhibitor = inhibitors of human vitamin D receptor; 400,000 tested, 0.93% active; Potency, µM, for the others: max response, negative = inhibition, hits mostly inhibitors; AID 504847; P11473; VDR-SRC2-3 peptide fluorescence polarization, 2 h; active = well fitted inhibition curve with a large enough effect; inconclusive = small, poorly fitted or top-dose-only effect, or another doubt; inactive = no such curve, though single readings can be large or run the other way; also: series mostly up to about 120 µM
Target sequence (P11473 whole entry, looked up): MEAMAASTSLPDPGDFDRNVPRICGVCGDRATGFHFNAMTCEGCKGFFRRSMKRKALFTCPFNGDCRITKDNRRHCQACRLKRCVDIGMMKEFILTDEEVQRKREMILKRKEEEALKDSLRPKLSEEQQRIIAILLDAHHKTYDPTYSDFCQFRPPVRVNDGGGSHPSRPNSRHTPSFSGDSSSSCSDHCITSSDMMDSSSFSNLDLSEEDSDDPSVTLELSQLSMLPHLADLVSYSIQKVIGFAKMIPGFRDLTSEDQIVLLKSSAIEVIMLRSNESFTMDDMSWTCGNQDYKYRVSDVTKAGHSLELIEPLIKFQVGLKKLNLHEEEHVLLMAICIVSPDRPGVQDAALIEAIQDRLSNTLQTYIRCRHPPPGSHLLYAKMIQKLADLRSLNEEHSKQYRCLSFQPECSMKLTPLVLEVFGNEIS
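After 23 nl compound addition and a short centrifugation, plates sat for 2 hours at ambient temperature; polarization of fluorescence then indicated loss of VDR binding to peptide SRC2-3.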
Starred values were filed as active, the others as inactive; ? = inconclusive; & = joins results of further samples. % is scaled to controls: 0 for no effect and ±100 for the full control effect; potency is read from the fitted curve at half-maximal effect.

no.	SMILES	VDR inhibitor
1	COc1ccc(NC(=O)C(CC(C)C)NC(=O)C2CCC(C)CC2)c(OC)c1 (stereo not given)	4%
2	CCN(CC)S(=O)(=O)c1ccc(N2CCOCC2)c(NC(=O)c2cccc3ccccc23)c1	-22%
3	O=C(Nc1ccc(N2CCOCC2)cc1N1CCOCC1)c1cccc([N+](=O)[O-])c1	-8%
4	O=C(NC(=S)NC1C2CC3CC(C2)CC1C3)c1ccccc1 (stereo not given)	1%
5	O=C(NCC1OCCc2ccccc21)c1ccc(NC(=O)c2ccccc2Cl)cc1 (stereo not given)	-8%
6	Cc1c(C(=O)NCCS(=O)(=O)N2CCN(c3ccccc3F)CC2)cccc1[N+](=O)[O-]	-6%
7	O=C(NCCn1cc(SCc2ccc(F)cc2)c2ccccc21)c1cccs1	-9%
8	O=C(COc1cc(Cl)ccc1Cl)N1CCNC1=O	-1%
9	C[C@H]1CCC/C=C/[C@@H]2C[C@H](O)C[C@H]2[C@H](O)[C@H](S(=O)c2ccc(O)cc2)CC(=O)O1 (stereo not given in full)	?
10	COCCn1c(=NC(=O)c2ccc3c(c2)OCCO3)sc2cc(C(=O)OC)ccc21	19%
11	C#CCNc1c2c(nc3ncnn13)CC(C)CC2 (stereo not given)	-8%
12	COc1ccccc1CNc1ccnc(-c2ccccc2C(F)(F)F)n1	0%
13	O=C(c1ccc(F)cc1)N1CCC2(CC1)NCCc1[nH]cnc12	-6%
14	Cc1[nH]n(C(N)=S)c(=O)c1N=Nc1ccc(S(=O)(=O)N2CCCC2)cc1	-1%
15	O=C(c1cccs1)N1CCCC(c2nc3c(nnn3Cc3cccc(Cl)c3)c(=O)[nH]2)C1 (stereo not given)	19%
16	N#CCC(=O)Nc1ccc(C(=O)OCC(=O)NC2CCCCCC2)cc1	-3%
17	CCOc1ccc(Cn2c(CNS(=O)(=O)c3ccc([N+](=O)[O-])cc3)nc3cccnc32)cc1	10%
18	COc1ccccc1C1C(C#N)=C(N)N(N(C)C)C2=C1C(=O)CC(C)(C)C2 (stereo not given)	-26%
19	CCOC(=O)c1sc(NC(=O)C(CC)OC(=O)c2ccco2)nc1C (stereo not given)	-9%
20	CN(C)/N=C/c1ccc(/C=N/NC(N)=S)o1	-12%
21	O=C(CNc1ccccc1)Nc1ccc(F)cc1	17%
22	O=C(N/C(=C/c1ccc(Cl)cc1)C(=O)N1CCOCC1)c1ccccc1	-8%
23	CCOC(=O)c1cc(C)sc1/N=C/C1C(=O)CC(C)(C)CC1=O	-8%
24	O=C(NCc1ccccn1)c1c(-c2ccccc2)sc2ccccc12	-12%
25	Cc1ccc(N(CC(=O)NC(C)(C)C)C(=O)CNC(=O)c2cccs2)cc1C	1%

Later entries:
no.	SMILES	VDR inhibitor
26	O=C(c1ccccc1F)N(Cc1cccs1)C1CCS(=O)(=O)C1 (stereo not given)	-2%
27	Cc1coc2c(C)c3oc(=O)c(CCC(=O)NCCc4ccccc4)c(C)c3cc12	6%
28	COc1cc(NC(=O)COc2cccc(OC)c2)cc(OC)c1	-1%
29	CN1CCN(c2nc3ccccn3c(=O)c2C=C(C#N)C#N)CC1	-18%
30	CN(C(=O)/C=C/c1ccccc1)C1CCS(=O)(=O)C1 (stereo not given)	-16%
31	Cc1occc1C(=O)NCc1ccccn1	0%
32	CCOc1ccc(OCC)c(Nc2nc3ccccc3c3nnc(C)n23)c1	3%
33	CCN(C(=O)c1sc2cc(OC)ccc2c1Cl)c1ccccc1	6%
34	CC1(C)COC(/C=C/c2cccc([N+](=O)[O-])c2)=N1	-24%
35	COc1cccc(NC(=O)c2ccc(N3C(=O)C4CC=C(C)CC4C3=O)cc2)c1 (stereo not given)	3%
36	CCNc1nc(NC(C)(C)C)nc(SC(C(C)=O)C(C)=O)n1	-6%
37	NC(=O)COC(=O)CC12CC3CC(CC(C3)C1)C2	-13%
38	O=C(CC1CCCC1)Nc1ccc(Br)cc1	1%
39	O=C(CN1CCN(C(=O)c2ccccc2)CC1)Nc1ccc(Cl)cc1F	-12%
40	CC(C)=CCOc1ccc(/C=C/C(=O)c2ccc(OCC=C(C)C)cc2OCC(=O)O)cc1	10µM*
41	CCN(C(C)=O)c1cccc2ccccc12	-3%
42	CCOC(=O)Cc1ccc(NC(=O)c2ccccc2Br)cc1	7%
43	COc1cc(/C=N/OCC(=O)Nc2ccc(OC(F)F)cc2)ccc1OCc1ccccc1	3%
44	COc1ccc(-c2nc(CS(=O)CC(=O)NCc3ccc(Cl)cc3)c(C)o2)cc1 (stereo not given)	-16%
45	COc1ccc(-c2cc(C(=O)NCC(c3ccccc3)N(C)C)c3ccccc3n2)cc1OC (stereo not given)	-9%
46	COc1ccc(NC2=NCC(=O)N2Cc2cccs2)cc1	0%
47	Cc1ccc(NC(=O)CN(C)S(=O)(=O)c2cccc3cccnc23)c(C)c1	0%&-8%
48	CC(=O)Cc1nsc(NC(=O)c2oc(-c3ccccc3Cl)cc2C)n1	25%
49	CC(C)Cc1ccc(C(C)C(=O)Nc2nccs2)cc1 (stereo not given)	-1%
50	Nc1cc(N)nc(SCC(=O)N2CCc3ccccc32)n1	?

The final 3 records of the part before lead into the next.
no.	SMILES	VDR inhibitor
48	CC(=O)Cc1nsc(NC(=O)c2oc(-c3ccccc3Cl)cc2C)n1	25%
49	CC(C)Cc1ccc(C(C)C(=O)Nc2nccs2)cc1 (stereo not given)	-1%
50	Nc1cc(N)nc(SCC(=O)N2CCc3ccccc32)n1	?
51	Cc1cc(C)cc(NC(=O)C2CCN(S(=O)(=O)c3c(C)n[nH]c3C)CC2)c1	-8%
52	O=C(N/N=C/c1ccc([N+](=O)[O-])cc1)c1ccccc1OCc1ccccc1	-6%
53	Cn1cc(CCCC(=O)NCc2ccccc2)c2ccccc21	13%
54	COc1ccc(C2C(C(C)=O)=C(O)C(=O)N2c2nccs2)c(OC)c1 (stereo not given)	-7%
55	CC1Cc2ccccc2N1C(=O)CN1C(=O)C(=O)N(Cc2ccccc2)C1=O (stereo not given)	-14%
56	CCOc1ccc(CN(C)CC(=O)Nc2ccc3c(c2)CCC3)cc1OC	-16%
57	CCC(C)Nc1nc2ccccc2n2c(C)nnc12 (stereo not given)	24%
58	O=C(O)C1=CC(=C(c2ccc(O)c(C(=O)O)c2)c2ccc(O)c(C(=O)O)c2)C=CC1=O	8.9µM*
59	COC(C(=O)Nc1ccc(F)c(F)c1)c1ccccc1 (stereo not given)	2%
60	O=C(NCCCCNC(=O)c1cccs1)c1cccs1	3%
61	Cc1ccc(C(=O)N2CCN(c3ccc(Cl)cc3)CC2)cc1	-9%
62	O=C(COC(=O)C1CCC(=O)N1)Nc1ccc(Br)cc1 (stereo not given)	-5%
63	C=CCCC(=O)N1CCC(n2nccc2NC(=O)c2ccc(OC)cc2)CC1	12%
64	CCOC(=O)N1CCN(C(=O)c2cccc(NC3=NC4CS(=O)(=O)CC4S3)c2)CC1 (stereo not given)	2%
65	Cc1nc(C(=O)NCC(=O)c2ccccc2)c(C(F)(F)F)o1	6%
66	Cn1c(=O)n(C)c2cc(/C=N/NC(=O)c3cc4cc(Br)ccc4o3)ccc21	-4%
67	COCCCNC(=S)Nc1ccc(C)cc1	3%
68	CC1CN(C(=O)Nc2cccc(C(F)(F)F)c2)CC(C)O1 (stereo not given)	6%
69	CSCC[C@H](NC(=O)[C@H](Cc1ccccc1)NC[C@@H](NC[C@@H](N)CS)C(C)C)C(=O)O	35µM*
70	Cn1cnc([N+](=O)[O-])c1S(=O)(=O)c1cccc(Cl)c1	45µM*
71	COc1ccc(/C=C(\C#N)C(=O)Nc2cccc(C)n2)cc1	-19%
72	Cc1cccc(-c2cc(NC(=O)COc3ccccc3F)n(-c3ccccc3)n2)c1	13%
73	CCOC(=O)C1=CN(Cc2cccc(F)c2)S(=O)(=O)N(CC)C1c1cccc(OC)c1 (stereo not given)	0%
74	CC1(C)COC(c2cccn2Cc2ccc(F)cc2Cl)=N1	-4%
75	O=C(NC1CCCCC1)c1ccc(-c2ccccc2)cc1	-8%

(more compounds)
no.	SMILES	VDR inhibitor
76	Cc1ccc(C2(C)NC(=O)N(CC(=O)Nc3ccc(N4CCOCC4)cc3N3CCOCC3)C2=O)cc1 (stereo not given)	-15%
77	CCOC(=O)c1[nH]ncc1CN1CCC(Cc2cccc(OC)c2)(C(=O)OCC)CC1	-11%
78	COc1cc(C(=O)OCc2ccccc2C#N)ccc1OCC(=O)N1CCOCC1	4%
79	Cc1ccc(CNC(=O)Cn2c(=O)n(-c3ccccc3)c(=O)c3sccc32)cc1	28%
80	Oc1ccc(Br)cc1C1Nc2ccccc2S1 (stereo not given)	?
81	CCc1nnc(SCC(=O)Nc2cc(OC)ccc2OC)nc1CC	8%
82	CCC(c1nnnn1CCOC)N1CCN(Cc2ccccc2OC)CC1 (stereo not given)	6%
83	Cc1ccc(CNCC(O)(c2ccccc2)c2ccc(F)cc2)cc1 (stereo not given)	-11%
84	O=CC1=C(N2CCOCC2)/C(=C\c2ccccc2)CC1	-13%
85	Cc1cc(N2C(=O)C3C4CC(C(Br)C4Br)C3C2=O)no1 (stereo not given)	-5%
86	CS(=O)(=O)Nc1cccc(-c2ccc3ncnc(NC4CCNCC4)c3c2)c1	-1%
87	CC(Oc1ccccc1)C(=O)Nc1nc2ccc(S(N)(=O)=O)cc2s1 (stereo not given)	1%
88	O=C(N/N=C/c1cccnc1)/C(=C\c1cccs1)NC(=O)c1ccccc1	-18%
89	CCOc1cccc(C2C(C(=O)c3ccc(C)o3)=C(O)C(=O)N2CCCn2ccnc2)c1 (stereo not given)	-6%
90	Cc1ccc(CCNC(=O)C2CCN(S(=O)(=O)c3cccc4nonc34)CC2)cc1	-1%
91	N#Cc1ccccc1NC(=O)CN1C(=O)NC(Cc2c[nH]c3ccccc23)C1=O (stereo not given)	-10%
92	O=C(Nc1ccc(N2CCOCC2)cc1)c1cc(-n2cnnc2)ccc1Cl	-16%
93	O=C(COc1cccnc1[N+](=O)[O-])c1ccc(Cl)s1	50µM*
94	COc1ccc(C(=O)O/N=C(\N)Cc2ccc([N+](=O)[O-])cc2)c(OC)c1	0%
95	Cn1ncc(C(=O)N2CCN(c3ccc(F)cc3)CC2)c1C1CCN(C(=O)OC(C)(C)C)CC1	5%
96	COc1cc(C2Nc3ccccc3C(=O)N2Cc2ccco2)cc(OC)c1OC (stereo not given)	-11%
97	CC1CCN(S(=O)(=O)c2ccc(Cl)cc2Br)CC1	-5%
98	Cc1ccc(S(=O)(=O)N2CCOCC2)cc1NCC(=O)Nc1ccc(OC(F)(F)F)cc1	3%
99	[O-]/[N+](=C\c1ccc(F)cc1)c1ccccc1	?
100	CC1=C(C(=O)OCC2CCCO2)C(c2ccccc2)NC(=O)N1 (stereo not given)	-14%

A second format for 5 compounds above.
no.	VDR inhibitor	smiles
68	6%	CC1CN(C(=O)Nc2cccc(C(F)(F)F)c2)CC(C)O1 (stereo not given)
63	12%	C=CCCC(=O)N1CCC(n2nccc2NC(=O)c2ccc(OC)cc2)CC1
24	-12%	O=C(NCc1ccccn1)c1c(-c2ccccc2)sc2ccccc12
7	-9%	O=C(NCCn1cc(SCc2ccc(F)cc2)c2ccccc21)c1cccs1
16	-3%	N#CCC(=O)Nc1ccc(C(=O)OCC(=O)NC2CCCCCC2)cc1

New compounds follow
no.	SMILES	VDR inhibitor
101	O=C(CNC(=O)c1cccnc1)N/N=C/c1ccc(O)cc1O	7%
102	CN1CCCC(OC(=O)c2ccc(S(=O)(=O)N(C)C)cc2)C1 (stereo not given)	12%
103	Cc1ccc(C(=O)Nc2ncc(C)s2)o1	-7%
104	O=C(CSCc1ccccc1)Nc1ccc2c(c1)C(=O)NC2=O	7%
105	CCCn1c2ccccc2c2cnn(CC(=O)NCCN(CC)CC)c(=O)c21	-18%&10%
106	CN1CCN(c2ccc(C(F)(F)F)cc2NC(=O)Nc2ccccc2)CC1	-22%
107	CC1(C)OC(=O)C(=Cc2ccc[nH]2)C(=O)O1	-9%
108	O=C(NC1CCCCC1)C(c1cccnc1)N(C(=O)CCl)c1ccccc1Cl (stereo not given)	-6%
109	O=C1CCC[C@@H]2C[C@@]3(C[C@@H]4CCN1[C@H]24)Nc1cc([N+](=O)[O-])ccc1NC3=NC1CCCCC1	7%
110	O=C(NCc1nnc(SCC(=O)N2CCC(Cc3ccccc3)CC2)o1)c1ccco1	13%
111	CCOC(=O)c1sc(NC(=O)CSc2n[nH]c(CC)n2)nc1C	3%
112	CC(=O)OC1CC[C@]2(C)C(CC[C@@]3(C)C2C(=O)C=C2C4C(C)C(C)CC[C@@]4(C(=O)O)CCC23C)C1(C)C (stereo not given in full)	0%
113	NCCS(=O)O	-1%&-18%
114	CC(C)C[C@H](NC(=O)[C@H](CC(C)C)NC(=O)[C@@H](Cc1c[nH]c2ccccc12)NC(=O)[C@H](Cc1ccccc1)NC(=O)[C@@H](Cc1c[nH]c2ccccc12)NC(=O)[C@H](CCC(N)=O)NC(=O)[C@H](CCC(N)=O)NC(=O)[C@@H]1CCCN1C(=O)[C@H](CCCCN)NC(=O)[C@@H]1CCCN1C(=O)[C@@H](CCCNC(=N)N)NC(=O)[C@@H]1CCCN1C(=O)CNC(=O)[C@H](CC(C)C)NC(=O)[C@H](CC(C)C)NC(=O)[C@H](Cc1ccc(O)cc1)NC(=O)CNC(=O)[C@H](C)NC(=O)[C@H](CO)NC(=O)[C@H](CC(N)=O)NC(=O)[C@H](CC(C)C)NC(=O)[C@@H](NC(=O)[C@H](Cc1c[nH]c2ccccc12)NC(=O)CN)[C@@H](C)O)C(N)=O	9%
115	O/N=C(/CCc1ccccc1)c1ccc2c(c1)OCCO2	3%
116	Cc1ccc([C@H]2C(C(=O)O)=CC[C@@H](c3ccc(C(C)C)cc3)N2S(=O)(=O)c2ccc(C)cc2)cc1	-16%
117	CCOC(=O)c1ccccc1NC(=O)c1cnn(-c2ccc(OC)cc2)c1C1CCN(C(=O)OC(C)(C)C)CC1	10%

These rows are one share of the data; the hit share may differ from the screen's.
